# Bioassay records: PubChem BioAssay, Johns Hopkins Ion Channel Center
# KCNQ2 pot – potentiators of rat KCNQ2 potassium channel. B-score at 10 µM. 310,000 compounds, 0.54% hits. Potassium voltage-gated channel subfamily KQT member 2 (Rattus norvegicus), O88943. CHO-K1 KCNQ2, FluxOR thallium flux fluorescence; hits give high values. AID 2239, 2010;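 active means fluorescence ratio B-score at least 3 SD of library B-scores, with initial fluorescence B-score within 3 SD, cut at about 5.3 in these data; same plate scores as AID 2156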;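 further: B-score of peak minus minimum over baseline fluorescence ratio after K+ and Tl+ stimulus; positive B-score means potentiation of KCNQ2 with more thallium influx and brighter signal; only the inactives scoring about 0 or higher are listed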
# Target sequence (O88943 whole entry, looked up): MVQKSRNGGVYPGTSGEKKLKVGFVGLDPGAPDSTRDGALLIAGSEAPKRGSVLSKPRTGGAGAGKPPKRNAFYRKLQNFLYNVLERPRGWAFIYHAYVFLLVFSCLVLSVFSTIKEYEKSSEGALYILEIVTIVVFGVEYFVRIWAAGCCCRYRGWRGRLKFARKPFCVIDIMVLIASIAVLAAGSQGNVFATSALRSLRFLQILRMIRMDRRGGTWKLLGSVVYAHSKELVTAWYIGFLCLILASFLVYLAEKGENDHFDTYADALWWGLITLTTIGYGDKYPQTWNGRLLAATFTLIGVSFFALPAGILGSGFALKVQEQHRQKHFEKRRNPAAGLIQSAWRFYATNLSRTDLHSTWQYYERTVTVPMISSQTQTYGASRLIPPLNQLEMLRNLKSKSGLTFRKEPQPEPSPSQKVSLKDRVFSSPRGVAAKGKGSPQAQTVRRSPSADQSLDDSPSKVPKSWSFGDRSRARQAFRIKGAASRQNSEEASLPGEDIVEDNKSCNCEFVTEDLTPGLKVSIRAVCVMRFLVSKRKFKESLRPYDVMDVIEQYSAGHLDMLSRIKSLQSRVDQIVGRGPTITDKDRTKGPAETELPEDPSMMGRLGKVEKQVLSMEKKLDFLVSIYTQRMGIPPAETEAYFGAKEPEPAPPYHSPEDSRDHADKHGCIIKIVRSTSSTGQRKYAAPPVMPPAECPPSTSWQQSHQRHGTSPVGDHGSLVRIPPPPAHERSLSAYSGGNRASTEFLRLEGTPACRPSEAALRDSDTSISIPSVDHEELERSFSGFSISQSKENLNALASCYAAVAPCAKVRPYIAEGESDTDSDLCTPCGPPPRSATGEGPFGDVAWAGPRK
# KCNQ2 pot baseline – further read-out of KCNQ2 pot, marked with its call; B-score; compound at 10 µM; measured here: initial fluorescence intensity artifact check;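 brightness before thallium and not channel activity; 0 = typical well and far values either way flag optical interference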
# * = called active by the depositor. The list is partial; count on the stated rates, not on these rows.
mol | KCNQ2 pot | KCNQ2 pot baseline
C=CCNc1cc(C)oc(=O)c1C(=O)CCC | 0.22 | -1.1
COc1cc(NC(=O)CCc2c(C)nc3nc(C)nn3c2C)cc(OC)c1 | 0.23 | 1.1
O=C(CSc1nc(-c2ccccc2Cl)ns1)NCc1ccco1 | 1.4 | -0.14
CCn1c(CNc2ccc(F)cc2)nnc1SCC#N | 1.9 | -1.1
CCSc1nnc(NC(=O)COc2ccc(Cl)cc2)s1 | 0.39 | -1.2
O=C(Cc1cccs1)N(CC1CCCO1)C1(C(=O)NC2CCCC2)CCCCC1 (configuration not stated) | 0.11 | 0.25
COc1ccc(NC(=O)CSc2ccc3ccccc3c2)cc1S(=O)(=O)N1CCCCC1 | 0.69 | 0.02
CC(C)c1ccc(-c2csc3nc[nH]c(=O)c23)cc1 | 3.5 | 0.79
Cc1cc(C(F)F)n2nc(C(=O)O)nc2n1 | 2.5 | 1.1
CCn1nc(C)cc1C(=O)Sc1cccc(Br)c1 | 0.03 | -0.58
COc1ccc(CCNC(=O)CN(C)S(=O)(=O)c2ccc(Br)s2)cc1OC | 1.5 | -1.9
COc1ccc(NC(=O)c2ccccc2[N+](=O)[O-])cc1 | 0.96 | -0.55
C=C(C)CSc1nc2ccccc2c(=O)n1-c1c(C)n(C)n(-c2ccccc2)c1=O | 0.4 | -0.14
CCc1nnc(NC(=O)CN2CCN(c3cccc(OC)c3)CC2)s1 | 3.1 | 0.72
Cc1cc(OCC(=O)Nc2ccccn2)c2c(C)c(C)c(=O)oc2c1 | 2.6 | -1.1
CCn1c(=O)c(C(=O)NNC(=O)c2ccc(Cl)cc2Cl)c(O)c2ccccc21 | 0.05 | -0.08
COC(=O)c1nnn(-c2nonc2N)c1CSc1ccccn1 | 0.35 | 0.79
OCCN(CCO)CC(O)CN(c1ccccc1)c1ccccc1 (configuration not stated) | 0.79 | -0.6
O=C1CCC(NC(=O)c2ccccc2)C(=O)N1 (configuration not stated) | 1.5 | 1.8
CCCC(NC(=O)c1ccco1)c1nc2ccccc2[nH]1 (configuration not stated) | 1.1 | -0.44

# Reprinted from the part before: five entries, followed by the next part.
mol | KCNQ2 pot | KCNQ2 pot baseline
CCn1c(=O)c(C(=O)NNC(=O)c2ccc(Cl)cc2Cl)c(O)c2ccccc21 | 0.05 | -0.08
COC(=O)c1nnn(-c2nonc2N)c1CSc1ccccn1 | 0.35 | 0.79
OCCN(CCO)CC(O)CN(c1ccccc1)c1ccccc1 (configuration not stated) | 0.79 | -0.6
O=C1CCC(NC(=O)c2ccccc2)C(=O)N1 (configuration not stated) | 1.5 | 1.8
CCCC(NC(=O)c1ccco1)c1nc2ccccc2[nH]1 (configuration not stated) | 1.1 | -0.44
O=C(Nc1ccccc1)Nc1ccc(Oc2ncnc3cc(Cl)ccc23)nc1 | 0.1 | -0.01
CCOC(=O)CNC(=S)N(Cc1ccccc1)Cc1cccnc1 | 1.9 | -1.2
Cc1ccc(NC(=O)c2sc(N)nc2C)cc1 | 1.1 | -0.06
COc1ccc(NC(=O)CSc2nnc(N)n2CC(=O)Nc2ccc(OC)cc2)cc1 | 0.16 | 1.9
O=C(O)CSC1CC(=O)N(c2cccc(Cl)c2)C1=O (configuration not stated) | 1.3 | 0.56
CN(C)S(=O)(=O)c1ccc(C(=O)NCc2ccccc2)cc1 | 0.92 | 0.14
O=C(c1ccco1)N1CCN(C(=O)N2CCOCC2)CC1 | 1 | 0.34
CCOC(=O)c1ccc(N=c2sc(C(=O)OC)cc(=O)n2C2CC2)cc1 | 0.41 | -1.8
COc1ccc(CN2CCN(C(=O)Cn3ncn4cccc4c3=O)CC2)c(OC)c1OC | 1.1 | -0.65
CCOc1cc(S(=O)(=O)N2CCC(C(N)=O)CC2)ccc1F | 0.69 | 0
CCn1c(C(=O)N2CCC(C(=O)NCc3ccc(OC)cc3)CC2)cc2sccc21 | 2.1 | -0.74
c1ccc(-c2ccc(-c3nc(-c4cccnc4)no3)cc2)cc1 | 0.26 | 0.63
O=C1C=C(c2cccnc2)CCC1 | 2.7 | -0.66
COc1ccc(C(C(=O)NCC2CCCO2)N(C(=O)CNC(=O)c2ccco2)c2cc(C)ccc2C)cc1OC (configuration not stated) | 1.7 | 0.08
O=C(COC(=O)c1cc[n+]([O-])cc1)Nc1ccc([N+](=O)[O-])cc1 | 0.39 | 2.2
COc1ccc(-n2c(=O)c3ccccc3n(CC(=O)NC3CCCCC3)c2=O)c(OC)c1 | 0.91 | 0.02
COc1ccc(NC(=O)COC(=O)CCNS(=O)(=O)c2ccccc2)cc1OC | 0.1 | 0.47
CCOC(=O)c1ccc(NC(=O)CSc2nc(N3CCOCC3)nc(N3CCOCC3)n2)cc1 | 0.25 | 0.47
COc1ccccc1CNC(=O)CN1CCC(NC(=O)c2ccccc2F)CC1 | 0.81 | 1.1
Cc1ccc(N2CC(C(=O)Nc3nccs3)CC2=O)cc1Cl (configuration not stated) | 0.25 | -0.08
O=C(NC1CCSC1=O)c1ccc(Cl)cc1 (configuration not stated) | 0.44 | -0.54
Cc1ccc(CN2CCCNC2=O)cc1 | 0.7 | -0.06
O=C1CCCC2(O)C1C(c1cccc(Br)c1)NC(=O)N2Cc1ccccc1 (configuration not stated) | 1.3 | -0.07
COc1cccc(NC(=O)C2C3C=CC4(O3)C2C(=O)N(CCCN2CCCC(C)C2)C4C(=O)NC2CCCCC2C)c1 (configuration not stated) | 0.83 | -0.77
CCOC(=O)c1c(NC(=S)NCc2ccccc2)sc2c1CCN(C(=O)OCC)C2 | 0.28 | 0.01
COC(=O)C(O)(NC(=O)OCc1ccccc1)C(F)(F)F (configuration not stated) | 0.4 | -0.29
O=C(N1CCCCCC1)N1CCN(S(=O)(=O)c2ccccc2)CC1 | 2 | 0.05
COC(=O)c1cc(Nc2cc(C)c3ccc(O)cc3n2)cc(C(=O)OC)c1 | 0.49 | 0.02
COc1ccc2oc(C(=O)OCC(=O)Nc3ccc(C(=O)N(C)C)cc3)c(C)c2c1 | 1 | 1
COc1ccc(Cl)cc1S(=O)(=O)N1CCC(C(=O)NCCc2ccccc2)CC1 | 1.1 | -1.1
O=C(Cn1cnc([N+](=O)[O-])n1)N/N=C/c1cc(Cl)ccc1O | 2.1 | -0.13
CSc1nc(C(=O)N2CCc3c([nH]c4ccccc34)C2c2ccccn2)cs1 (configuration not stated) | 0.09 | -2
Cc1nc(-c2ccc(NC(=O)c3ccco3)cc2)cs1 | 2.4 | 0.31
CC(=O)c1cccc(NC(=O)CCNS(=O)(=O)c2cccc(C(C)=O)c2)c1 | 0.11 | 0.75
COCCNC(=O)C1CCCN(S(=O)(=O)c2cccc3nsnc23)C1 (configuration not stated) | 0.01 | -1.4
Nc1cc(=O)nc(SCC(=O)N2CCN(c3ccccc3)CC2)n1-c1ccc(F)cc1 | 0.2 | 0.64
CC(=O)c1cccc(OCc2cc(C(=O)N(C)Cc3ccc(C)o3)no2)c1 | 2.5 | -2.3
Oc1ccccc1C=Nc1cccc2ccccc12 | 0.68 | -0.81
Cc1cc(C)c(NC(=O)Cn2nnc(C(=O)Nc3ccc(F)cc3F)c2N)c(C)c1 | 0.51 | 1.1
CC1CCN(c2nc3nonc3nc2Nc2ccc(F)cc2)CC1 | 0.4 | 0.03
CCCN1C(=O)c2cc(C(=O)NCCc3cccc(C)c3)ccc2C1O (configuration not stated) | 0.87 | -1.3
O=C(CCn1c(=O)c2sccc2n(CC(=O)OCc2ccccc2)c1=O)NCc1ccccc1 | 0.35 | -1.5
CCCc1cc(=O)[nH]c(NCCc2ccccc2)n1 | 0.78 | 0.35
CCc1ccccc1NC(=O)CSc1nnc(-c2cc(C)[nH]n2)n1N | 1.4 | 0.92
COc1ccc(F)c(CN2CCC(n3nccc3NC(=O)C3CCOC3)CC2)c1 (configuration not stated) | 0.58 | 0.57
COc1ccnc(NCc2cccc(C(F)(F)F)c2)c1C#N | 1.2 | -2.1
COc1cc(OC)cc(C(=O)NCCCN2CCOCC2)c1 | 0.66 | -0.82
Nc1nc2c(C(=O)N3CCOCC3)nnn2c2ccccc12 | 0.04 | -0.36
Cn1nc(CC(=O)Nc2cccc3ncccc23)c2ccccc2c1=O | 1.9 | -1
O=C(NNc1nccc(C(F)(F)F)n1)Nc1cccc(Cl)c1 | 2.2 | 0
CCOC(=O)c1ccc(N2C(=O)c3n[nH]c(C)c3C2c2ccco2)cc1 (configuration not stated) | 0.35 | -2.1
Cc1cccc(NC(=S)N(c2ccccc2)C(C)C)c1C | 0.01 | -0.25
Cc1cccc(CSc2nncc(=O)[nH]2)c1 | 0.82 | -1
C=CCC(C=C)[N+]1(CC(=O)OC)CCCCC1 (configuration not stated) | 0.02 | -2.9
Nc1cc(-c2ccc(Br)cc2)[nH]n1 | 0.69 | -0.42
CCCNC(=O)c1ccc(N(Cc2ccccc2)S(C)(=O)=O)cc1 | 0.01 | 0.06
O=C(OCC(=O)N1CCCC1)c1c(Cl)ccc(Cl)c1Cl | 0.9 | 0.05
C=CCNC(=O)CSc1n[nH]c(-c2cc(Cl)ccc2OC)n1 | 1.7 | 1.4
O=C(CSC(=S)N1CCOCC1)c1cc2ccccc2oc1=O | 0.56 | 0.73
C=CCn1c(COc2cccc3ccc(C)nc23)nnc1SCC(=O)O | 0.82 | 0

# Next section.
# Every second line gives: KCNQ2 pot, KCNQ2 pot baseline
- CN(C(=O)COC(=O)c1ccc(S(=O)(=O)N2CCOCC2)cc1)C1CCCCC1
  0.83, -1.7
- CNS(=O)(=O)c1cccc(C(=O)OCCCOC(=O)c2cccc(S(=O)(=O)NC)c2)c1
  0.91, 0.51
- CC(C)c1nnc(NC(=O)CCC(=O)N2CCN(c3cccc(Cl)c3)CC2)s1
  0.33, 0.93
- COc1ccc(NC(=O)C2CCCN(c3nn4c(=O)cc(C)nc4s3)C2)cc1 (configuration not stated)
  2.2, -1.4
- CC1CCCCC1NC(=O)CCn1c(=O)oc2ccccc21 (configuration not stated)
  0.25, 0.49
- COc1cc(C(=S)N2CCOCC2)cc(OC)c1O
  0.52, 0.94
- Cc1nc(C)c(CC(=O)N2CCc3c([nH]c4ccccc34)C2c2ccccn2)s1 (configuration not stated)
  0.32, -0.83
- Nc1nc(Cl)cc(NCCc2ccc(O)cc2)n1
  2.4, -1.8
- CCOc1ccc(-c2cc(N)n(S(=O)(=O)c3cccc4nsnc34)n2)cc1
  0.53, -0.71
- Cc1cc(C)c(S(=O)(=O)N2CCN(C(=O)CN3C(=O)NC4(CCCC4)C3=O)CC2)c(C)c1
  1.1, 1.1
- Cc1ccc(NC(=O)COC(=O)Cn2cnc3c2c(=O)n(C)c(=O)n3C)c(Cl)c1
  0.02, 0.64
- CCOC(=O)c1c(NC(=O)CSc2nnc(-c3c[nH]c4ccccc34)n2CCOC)sc2c1CCCC2
  0.06, -0.54
- CN1CCc2c(sc(NC(=O)C3CCCN3S(=O)(=O)c3ccc(Cl)s3)c2C(N)=O)C1 (configuration not stated)
  0.81, 2.2
- COc1ccc(Nc2ccnc3ccccc23)cc1
  2, -0.21
- O=C(O)c1cccc(Oc2ccccc2[N+](=O)[O-])c1
  0.78, -0.91
- CCOC(=O)N1CCN(S(=O)(=O)c2ccc(C)c(C(=O)NC3CCCCC3)c2)CC1
  1, 0.88
- CCOC(=O)c1cccc(NS(=O)(=O)c2cnc[nH]2)c1
  0.13, 2.2
- CCC1=NN=C(c2ccc(F)cc2)C(c2c[nH]c3ccccc23)N1O (configuration not stated)
  1.6, 1.6
- Cc1ccc(NC(=O)CN2C(=O)c3ccccc3S2(=O)=O)cc1C
  0.75, 0.39
- O=C1NCCc2cc3c(cc21)OCO3
  0.02, 0.97
- CC(C)c1ccc2[nH]c(O)c(N=NC(=S)NCCc3ccccc3)c2c1
  0.16, 2.5
- CC1CN=C(Nc2cccc(S(=O)(=O)N(C)C)c2)S1 (configuration not stated)
  1.1, -1
- COc1ccccc1Cn1c(=S)[nH]c2ccccc2c1=O
  1.4, -1.1
- CCc1cc2cc(C)ccc2nc1SCC(=O)N1CC(=O)Nc2ccccc21
  0.35, -0.22
- CCCCOc1ccc(CON(C(C)=O)C(C)=O)cc1Cl
  0.01, -0.09
- CCOC(=O)N1CCN(Cc2nc(-c3ccc(OC)cc3)no2)CC1
  0.02, -1.6
- CC(C)N(C(=O)NC(=O)Nc1ccccn1)S(C)(=O)=O
  0.9, 0.03
- COc1ccc(CNC(=O)N[C@@H](Cc2c[nH]c3ccccc23)C(=O)O)cc1
  0.03, 0.14
- C=CCc1ccc(OCCn2cccc2C=O)c(OC)c1
  7.6*, 0.64*
- CC(C)C(=O)Nc1ccc(NC(=O)c2ccccn2)cn1
  1.3, 1.1
- Cc1ccc(NC(=O)C2CCC(=O)N2)cc1C (configuration not stated)
  0.36, -0.06
- Nc1cc(S(=O)(=O)Nc2ccc(Cl)cc2)ccc1N1CCOCC1
  0.41, -0.5
- CC(=O)N1CCN(C(=O)c2ccc(C(=O)c3ccccc3)cc2)CC1
  1.1, 0.81
- Cc1nc(S/C(=C\c2ccc(-c3ccc(C(=O)O)c(Cl)c3)o2)C(=O)O)n[nH]1
  1.2, 0.82
- CCn1nnnc1NC(=O)c1cc(OC)c(OC)c(OC)c1
  1.4, -0.09
- CC(=O)c1c(C)[nH]c(C(=O)Nc2cc(C)cc(C)c2)c1C
  0.76, -3.8
- S=c1[nH]nc(Cc2c[nH]c3ccccc23)o1
  1.5, -0.61
- COc1cc(OC)cc(C(=O)Nc2cccnc2)c1
  1.1, 0.84
- NC(=O)C1CC(=O)N(c2ccc(OCc3ccc(Cl)cc3Cl)cc2)C1 (configuration not stated)
  0.13, -0.46
- Cc1ccc(C)c(S(=O)(=O)Nc2ccc(O)cc2)c1
  3.1, -0.34
- COc1ccc(NC(=S)N2CCN(C)CC2)cc1
  1.1, -0.54
- COc1ccc(CCN(C(=O)Cn2nnc3ccccc32)C(C(=O)NCC2CCCO2)c2ccncc2)cc1OC (configuration not stated)
  0.9, -0.8
